KCNQ2 block: KCNQ2 potassium channel inhibitors, primary screen, cell-based, CHO-K1, FluxOR thallium flux, B-score (AID 2156); 20 min; stronger effect = lower value; only compounds with negative scores are shown here; some inactives read as strong as hits; O88943; B-score at 10 µM; 310,000 tested, 1.1% active;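 active = fluorescence ratio B-score at most minus 3 library SDs, with starting brightness B-score within 2 library SDs, cut at about -5.5 in these data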
Target sequence (O88943 whole entry, looked up): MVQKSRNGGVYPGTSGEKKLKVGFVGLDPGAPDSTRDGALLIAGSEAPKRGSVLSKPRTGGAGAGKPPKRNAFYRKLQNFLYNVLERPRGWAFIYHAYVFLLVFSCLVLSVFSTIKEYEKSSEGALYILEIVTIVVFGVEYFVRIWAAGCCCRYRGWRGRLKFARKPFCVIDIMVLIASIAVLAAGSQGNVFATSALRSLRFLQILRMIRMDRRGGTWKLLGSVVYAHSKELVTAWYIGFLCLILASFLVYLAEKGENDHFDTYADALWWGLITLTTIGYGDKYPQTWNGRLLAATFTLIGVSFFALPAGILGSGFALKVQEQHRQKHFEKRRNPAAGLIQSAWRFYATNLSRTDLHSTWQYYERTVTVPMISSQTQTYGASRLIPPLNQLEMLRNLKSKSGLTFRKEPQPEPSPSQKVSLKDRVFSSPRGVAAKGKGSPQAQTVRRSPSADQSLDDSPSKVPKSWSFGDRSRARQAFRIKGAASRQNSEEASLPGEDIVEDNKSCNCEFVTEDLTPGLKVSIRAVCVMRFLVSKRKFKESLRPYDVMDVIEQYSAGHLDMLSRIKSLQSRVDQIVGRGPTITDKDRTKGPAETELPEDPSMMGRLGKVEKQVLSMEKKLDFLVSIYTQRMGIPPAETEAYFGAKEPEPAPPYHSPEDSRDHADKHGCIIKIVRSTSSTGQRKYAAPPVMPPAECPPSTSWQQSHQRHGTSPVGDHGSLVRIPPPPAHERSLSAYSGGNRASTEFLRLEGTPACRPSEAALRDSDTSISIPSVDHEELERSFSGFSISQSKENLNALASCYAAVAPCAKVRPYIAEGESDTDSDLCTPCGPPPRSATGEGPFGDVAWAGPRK
KCNQ2 block baseline: also measured in KCNQ2 block; calls as there; B-score; measured here: initial fluorescence intensity artifact check;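 brightness before thallium and not channel activity; 0 = typical well and far values either way flag optical interference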
The depositor's hits bear a star; i = inactive. The list is partial. The share of hits here may be higher or lower than overall.

Values run as follows: KCNQ2 block, KCNQ2 block baseline
> Cc1ccc(-c2ccc(C(=O)NCCCNC(=O)c3cnccn3)o2)cc1Cl
    i, -0.73
> COc1ccccc1C(=O)Nc1ccnn1C1CCN(C(=O)c2ccoc2)CC1
    i, 0.01
> COc1ccc(-c2cc(C(=O)N3CCc4ccccc4C3)no2)cc1
    i, 0.24
> Cc1ccc(C)c(NS(=O)(=O)c2ccc(OCC(=O)NCC3CCCO3)cc2)c1 (stereo not drawn)
    i, -0.76
> CC1CCN(C(=O)C2CCCN(S(=O)(=O)c3ccc4c(c3)CC(C)N4C(=O)C3CC3)C2)CC1 (stereo not drawn)
    i, -0.31
> Cc1ccccc1C(=O)Oc1ccccc1C(=O)N1CCOCC1
    i, -0.59
> CCOC(=O)N1CCN(Cc2nc(Cc3cccc(F)c3)no2)CC1
    i, 2
> N/C(=N\OC(=O)c1cc([N+](=O)[O-])ccc1Cl)c1ccccn1
    i, 0.07
> O=C(COc1ccc(/C=N/NS(=O)(=O)c2ccccc2)cc1)Nc1ccccc1
    i, 2.1
> COc1ccc(C2C(C#N)=C(C)NC(C)=C2C#N)c(OC)c1
    i, 0.78
> CCS(=O)CC(=O)Nc1c(-c2ccccc2)oc2ccccc2c1=O (stereo not drawn)
    i, 1.5
> CCOC(=O)C(NC(=O)CC)(Nc1sc2c(c1C(=O)OC)CCN(C)C2)C(F)(F)F (stereo not drawn)
    i, -0.72
> CCCNc1c(NS(=O)(=O)c2ccc(Cl)s2)c(=O)oc2ccccc12
    i, -1.6
> CC(C)CC1c2[nH]c3ccccc3c2CCN1CCCn1cccn1 (stereo not drawn)
    i, -2
> CN(C)Cc1c(C(=O)N/N=C/c2cccs2)nnn1-c1nonc1N
    i, 0.18
> COCCN(CC(=O)NC1CCCCC1)C(=O)CSc1nc2ccccc2o1
    i, -0.55
> CCS(=O)(=O)c1ccc(C(=O)Nc2cccc(Cl)c2)c(Cl)c1Cl
    i, 0.63
> Cc1ccc(C(=O)N[C@H](C(=O)Nc2cc(Cl)cc(Cl)c2)C(C)C)cc1
    i, -0.49
> CCCCN1CC(=O)N2[C@H](c3ccc(Cl)cc3)[C@@H]3C(=O)N(CC)C(=O)[C@@H]3[C@]2(C)C1=O
    i, 0.73
> CCOC(=O)N1CCN(c2c(NCC3CCN(Cc4cccc(C)c4)CC3)c(=O)c2=O)CC1
    i, -2.5
> COC(=O)C1CN(C(=O)COc2ccc(C)c(C)c2)c2ccccc2O1 (stereo not drawn)
    i, 0.38
> Cc1ccc(O)c(C2=Nc3ccccc3C2(C)C)c1
    i, -2.4
> CC1CN(c2nc3ccccc3nc2C(C#N)C(=O)NC2CCCCC2)CC(C)O1 (stereo not drawn)
    i, 6
> O=c1c2c3c(sc2nc(N2CCNCC2)n1-c1cccc(Cl)c1)CCCCC3
    i, 0.17
> CC(C)OCCCN(C)C1CCN(S(=O)(=O)c2csc(C(N)=O)c2)CC1
    i, 0.87
> Cc1ccnc(SCCn2c(Br)nc3c2c(=O)[nH]c(=O)n3C)n1
    i, -0.35
> CC(C)CC(c1nnnn1C1CCCC1)N1CCN(c2ccccc2F)CC1 (stereo not drawn)
    i, 0.23
> Cc1cc(N2C(=O)C(O)=C(C(=O)c3cccs3)C2c2cccc(Br)c2)no1 (stereo not drawn)
    i, -0.27
> CCc1ccccc1NC(=S)NC1CC2CCC(C1)N2Cc1ccco1 (stereo not drawn)
    i, 1.1
> O=C(N/N=C/c1ccc(OC2CSC2)cc1)c1ccccc1
    i, 0.71
> COc1ccc(-c2ccnc(SCC(=O)c3ccc(Cl)cc3)n2)cc1
    i, -1.8
> O=C(NCCCN1CCOCC1)c1cc(-c2cccc(Br)c2)nc2ccccc12
    i, -2.4
> Cc1csc(/C(=N/OC(=O)c2ccco2)C(N)=O)n1
    i, 0.1
> COCC(C)n1c(SCC(=O)Nc2oc(C)c3c(C)n[nH]c(=O)c23)nc2ccccc2c1=O (stereo not drawn)
    i, -0.06
> Cc1csc(NC(=O)C2CCC(C)(C(=O)O)C2(C)C)n1 (stereo not drawn)
    i, -0.22
> COc1ccc(C(=O)N[C@H](C(=O)NCc2cccs2)C(C)C)cc1
    i, 2.1
> CCN1CCN(C(c2cccs2)C(C)NS(=O)(=O)c2ccccc2)CC1 (stereo not drawn)
    i, 0.29
> CCCCOc1ccc(C(=O)Nc2ccc(S(=O)(=O)Nc3onc(C)c3C)cc2)cc1
    i, 0.35
> CCOC(=O)c1ccc(NC(=O)c2cccc(S(=O)(=O)N3CCOCC3)c2)cc1
    i, 0.31
> O=C(OCC(=O)N1CCN(c2ccccc2)CC1)c1cccs1
    i, -2.3
> CC1(C)CC(CC(=O)Nc2ccccn2)C(=O)O1 (stereo not drawn)
    i, -0.08
> CSc1nc2c(c(=O)[nH]c(=O)n2C)n1Cc1ccc(Cl)cc1
    i, 0.49
> O=C(CSc1nc(-c2ccco2)cc(C(F)(F)F)n1)Nc1ccccc1C(F)(F)F
    i, -0.43
> O=C(CN1C(=O)COc2ccccc21)Nc1ccccc1F
    i, -0.16
> CCOC(=O)N1CCN(C(=S)NC(C)(C)C)CC1
    i, -1.1
> CCNc1nc(OCCNS(=O)(=O)c2cc(C)ccc2C)nc(N(C)C)n1
    i, 0.01
> C=CCOc1ccc(/C=N\NC(N)=S)cc1
    i, 0.18
> CCc1ccc2c(CN3CCOCC3)cc(=O)oc2c1
    i, -1.1
> Cc1ccc(-c2noc(-c3ccccc3C(=O)N3CCN(C)CC3)n2)cc1
    i, 0.42
> CCC(C)(C)NC(=O)C1CCCN(S(=O)(=O)c2ccc3c(c2)CC(C)N3C(=O)C2CC2)C1 (stereo not drawn)
    i, -0.44
> O=C1c2ccccc2C(=O)N1CC(O)CNc1ccc(Br)cc1 (stereo not drawn)
    i, -0.78
> COc1ccc(/C=N/NC(=O)c2cc(-c3ccccc3)nc3ccccc23)c(C(=O)O)c1OC
    i, -0.11
> CC(C)(C)C1CCc2c(C(=O)NNC(=O)CCCC(=O)O)csc2C1 (stereo not drawn)
    i, 0.16
> O=C(CCc1nc(-c2ccccc2F)no1)NCCN1CCc2ccccc2C1
    i, 0.37
> NC(=O)CC[C@@H]1NC(=O)[C@H](CO)NC(=O)c2cc([N+](=O)[O-])cc(I)c2NCCCC[C@@H](C(N)=O)NC(=O)[C@H](Cc2ccc(O)cc2)NC1=O
    i, -0.23
> CC(/C=C/c1ccccc1F)=N\NC(=O)c1ccccc1
    i, 2.7
> Cc1ccc(S(=O)(=O)N2CCOCC2)cc1C(=O)N1c2ccccc2Sc2ccccc21
    i, -0.09
> Cc1ccc(OCC(=O)Nc2c3c(nn2C(C)(C)C)CS(=O)(=O)C3)cc1
    i, -2.4
> Cc1ccc(Cn2c(S(=O)(=O)O)nc3ccccc32)cc1
    i, 0.66
> O=C(N/N=C/c1cccnc1)c1ccco1
    i, 0.05

Following part
Values run as follows: KCNQ2 block, KCNQ2 block baseline
> CN(C)CCN(Cc1ccc(Cl)cc1)c1ccccn1
    i, 1.6
> CC(OC(=O)CC1CC2CCC1C2)C(=O)Nc1cccc(S(=O)(=O)N2CCOCC2)c1 (stereo not drawn)
    i, -0.16
> Cc1c(N(C(=O)c2ccccn2)C2(C(=O)NC3CCCC3)CCCCC2)c(=O)n(-c2ccccc2)n1C
    i, -0.55
> Cn1ccnc1SCC(=O)Nc1cc(F)ccc1F
    i, -0.22
> Cc1cccc(NC(=O)CN2C(=O)COc3ccc(Cl)cc32)c1
    i, 0.13
> O=C(c1ccccc1)N1N=C(c2ccccc2)CC1c1cccs1 (stereo not drawn)
    i, 0.68
> O=C(CSc1cccc2cccnc12)N1CCCC1
    i, 0.07
> C/C(CCc1ccccc1)=N\NC(=O)c1ccc(CN2CCOCC2)cc1
    i, 1.2
> Cc1cc(C)cc(N(CC(=O)NCc2ccco2)C(=O)c2snc(C(N)=O)c2N)c1
    i, 0.39
> COc1ccc(/C(O)=C2/C(=O)C(=O)N(c3ccccn3)C2c2ccc(OC)cc2)cc1 (stereo not drawn)
    i, -0.49
> COc1c(Cl)cc(-c2noc(C)c2C(=O)NCCc2ccc(C)cc2)cc1Cl
    i, -0.34
> Cc1ccccc1NS(=O)(=O)c1cc2c(cc1C)NC(=O)CO2
    i, -1.6
> Cn1cccc1Cc1nnc(SCC(=O)NCc2ccccc2Cl)n1-c1ccc(F)cc1
    -7.2*, -1.3*
> COc1ccc(C2Nc3ccccc3C(=O)N2NS(=O)(=O)c2ccccc2)c(OC)c1 (stereo not drawn)
    i, -0.38
> N#CC(c1ccc(Cl)cc1)c1cccc(Cl)n1 (stereo not drawn)
    i, -1.2
> CC(=O)NC12CC3CC(C1)CC(C(=O)OCC(=O)Nc1ncc(Cl)cc1Cl)(C3)C2
    i, 0.53
> Cc1nn(CC(=O)Nc2ccc(N(C)C)cc2)c(C)c1[N+](=O)[O-]
    i, 0.38
> CC(=O)c1cccc(NS(=O)(=O)c2ccc(C(=O)Nc3ccccc3)cc2)c1
    i, -1.8
> COc1ccc(S(=O)(=O)NCc2ccco2)cc1C(=O)N1CCCCC1
    i, -0.44
> COc1ccccc1CNC(=O)C1CCC(=O)N(CCCN2CCCC2=O)C1 (stereo not drawn)
    i, -0.83
> CCOCCCNC(=S)N1CCCN(c2nc3cc(C)ccc3cc2C#N)CC1
    i, -1.5
> COc1cc(OC)cc(C(=O)Nc2ccc(CN3CCCCC3)cc2)c1
    i, -0.59
> O=C(c1ccccc1)C(O)(Cc1ccccc1)c1ccccc1 (stereo not drawn)
    i, 0.26
> C#Cc1cccc(C(=O)NC2CCCN(C3Cc4ccccc4C3)C2)c1 (stereo not drawn)
    i, -0.62
> COC(=O)Cc1c(O)ccn(Cc2ccc(OC)c(OC)c2)c1=O
    i, 2.9
> COc1cc2c(cc1OC)C(c1ccc(OC)c(OC)c1OC)CC(=O)N2 (stereo not drawn)
    i, -0.88
> CCOCCCn1c(=NC(C)=O)c(C#N)cc2c(=O)n3ccccc3nc21
    i, 0.87
> CN1CCN(C(=O)CN(C2CCCCC2)S(=O)(=O)c2ccc(Br)cc2)CC1
    i, -2.2
> CN(C)c1ccc(C(=O)c2ccccc2C(=O)O)cc1[N+](=O)[O-]
    i, -1.4
> CCOc1ccc(C(=O)NNC2CC(=O)N(Cc3ccc(Cl)cc3)C2=O)cc1OC (stereo not drawn)
    i, -0.08

Given tab-delimited: entries from further up.
SMILES	KCNQ2 block	KCNQ2 block baseline
CCS(=O)(=O)c1ccc(C(=O)Nc2cccc(Cl)c2)c(Cl)c1Cl	i	0.63
COc1ccccc1CNC(=O)C1CCC(=O)N(CCCN2CCCC2=O)C1 (stereo not drawn)	i	-0.83

New compounds follow.
Values run as follows: KCNQ2 block, KCNQ2 block baseline
> Cc1[nH]c2ccc(F)cc2c1CCN(Cc1ccco1)C(=S)NC(C)(C)C
    i, -2.3
> CCC(C)NC(=O)C1(NC(=O)Nc2ccccc2)CCCCC1 (stereo not drawn)
    i, 1.2
> CCn1c(SCC(=O)Nc2cc(S(=O)(=O)N3CCOCC3)ccc2OC)nnc1-c1ccncc1
    i, 1.9
> Cc1ccc(S(=O)(=O)N(C)CC(=O)N2CCCC2)cc1
    i, 0.94
> CC(=O)Nc1ccc(NC(=O)CSc2nnc3ccc(-c4ccc(F)cc4)nn23)cc1
    i, 0.78
> COc1ccc(CCNC(=O)c2cccc3c2C(=O)N(C2CCCCC2)C3)cc1OC
    i, 0.6
> Cc1ccc(C)c(C(=O)CSc2nnnn2-c2cccnc2)c1
    i, -0.03
> Oc1ccc2ccccc2c1C=Nc1ccccc1-c1nc2ccccc2[nH]1
    i, -0.02
> Cc1cc(-c2ccc(S(=O)(=O)N3CCN(c4cccc(C(F)(F)F)c4)CC3)s2)on1
    i, -0.68
> O=C(COc1cc2oc(=O)c3c(c2cc1Cl)CCC3)NCCCN1CCOCC1
    i, -0.47
> CN(C)c1ccc(/C=C2/NC(=O)NC2=O)cc1
    i, 0.51
> CC(=O)N/C(=C\c1cccs1)C(=O)O
    i, 0.54
> O=C(C1CCCN(S(=O)(=O)c2cccc3nonc23)C1)N1CCN(c2ccccc2Cl)CC1 (stereo not drawn)
    i, 1.4
> Cc1csc(NC(=O)CN2C(=O)C3CC=CCC3C2=O)n1 (stereo not drawn)
    i, 0.9
> COc1cc(OC)c(-n2cc(-c3ccc(OC)c(OC)c3)[nH]c2=S)cc1Cl
    i, -1.3
> Cc1noc(C)c1COc1ccccc1C(=O)NNC(=O)c1ccccc1
    i, 2.2
> CCc1cccc(NC(=O)CN(C)S(=O)(=O)c2cccs2)c1
    i, 0.79
> COC(=O)Cn1c2[n+](c3ccccc31)CC(O)CS2 (stereo not drawn)
    i, 0.38
> O=c1[nH]c2cc3c(cc2cc1CN(Cc1nnnn1C1CCCC1)C1CCCC1)OCCO3
    i, 1.7
> COc1ccc(C[C@H]2CN3C(=NC[C@@H]3Cc3ccccc3)N2CCNC(=O)CCC2CCCCC2)cc1
    i, -0.47
> N#Cc1nc(-c2cccs2)oc1NCc1ccc2c(c1)OCO2
    i, -0.17
> COc1ccccc1N1CCN(CC(=O)NCCc2ccc(S(N)(=O)=O)cc2)CC1
    i, 1.8
> Cc1occc1-c1nnc(SCC(=O)N(C)C)o1
    i, -1.6
> CCOC(=O)C1(CCOc2ccccc2)CCN(Cc2ccncc2)CC1
    i, 0.11

Another view of part of the listing above:
> Cc1occc1-c1nnc(SCC(=O)N(C)C)o1
  KCNQ2 block: i
  KCNQ2 block baseline: -1.6
> COc1ccccc1N1CCN(CC(=O)NCCc2ccc(S(N)(=O)=O)cc2)CC1
  KCNQ2 block: i
  KCNQ2 block baseline: 1.8

Part of the list above in order of SMILES length, largest number first.
Values run as follows: KCNQ2 block, KCNQ2 block baseline
> COc1ccc(C2Nc3ccccc3C(=O)N2NS(=O)(=O)c2ccccc2)c(OC)c1 (stereo not drawn)
    i, -0.38
> Cc1csc(/C(=N/OC(=O)c2ccco2)C(N)=O)n1
    i, 0.1
> O=C(CSc1cccc2cccnc12)N1CCCC1
    i, 0.07
